# Screening data as filed in PubChem BioAssay.
# NPYLR7 agonist = mosquito NPYLR7 agonism; HEK293T NPYLR7/Galpha15, GCaMP6s calcium fluorescence; activation, % at 10 µM; 270,000 compounds, 0.15% hits; AID 1259423; in the data active = activation above about 40%;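 note: 0% = vehicle and 100% = reference agonist at the receptor; some compounds past the cut are filed as inactive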
# NPYLR7 agonist max-min = recorded beside NPYLR7 agonist, whose call it bears; activation, %; measured here: Max-Min RFU normalised activation; some inactives read as strong as hits;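 span of the calcium signal over five minutes; 0% = vehicle and 100% = native peptide agonist; compound fluorescence can raise it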
# An asterisk follows results filed as active; & = joins results of further samples. The list is partial; the hit share may differ from the screen's.
SMILES,NPYLR7 agonist,NPYLR7 agonist max-min
CNC(=O)c1cc(S(=O)(=O)Nc2cc(C(=O)O)ccc2C)cs1,-1,0
CC1C(=O)N2CCCc3cc(NC(=O)C(=O)NCCN4CCOCC4)cc1c32 (centres undefined),11,6
COc1cc(=O)n(-c2ccccc2C)nc1C(=O)Nc1nc2ccccc2s1,1,-2
CCc1ccc2nc(NC(=O)C3C4CC5CC(C4)CC3C5)sc2c1 (centres undefined),-5,-9
CCOC(=O)C1=C(C)N(c2ccccc2)C(=S)NC1c1ccc(OC)cc1 (centres undefined),-8,-14
CC(C)OC(=O)c1cc(NC(=O)[C@@H]2CCCO2)ccc1Cl,0,1
COc1cc(=O)n(-c2ccccc2)nc1C(=O)Nc1ccc(OC(F)(F)F)cc1,3,2
Cc1ccc(-n2c(SCC(=O)N3CCOCC3)nc3c([nH]c4ccccc43)c2=O)cc1,1,19
Cc1nc2sc(C)c(C)n2c(=O)c1NC(=O)c1c(F)cccc1Cl,14,7
CC(=O)N1CCN(c2oc(-c3ccc(COc4ccccc4)o3)nc2C#N)CC1,1,23
Cc1ccc(CCC(=O)NCCc2nc3ccc(F)cc3n2C)cc1,0,-1
O=C(CCC(=O)N1CCc2c([nH]c3ccccc23)C1)NCCc1ccc(O)cc1,9,5
Cc1ccc(-c2ccc(S(N)(=O)=O)s2)c(-n2cccn2)c1,3,-1
CCc1ccc(S(=O)(=O)NCCNc2ccc(Nc3ccncc3)nn2)cc1,14,5
COc1ccc(C(=O)N2CCN(Cc3cnc(C)n3C)CC2)cc1,11,8
COc1cc(NC(=O)c2ccc3c(c2)NC(=O)CS3)cc(OC)c1,-3,-4
Cc1ccc(-n2nc(C(=O)NCc3cccnc3)c(=O)n(Cc3cccc(C(F)(F)F)c3)c2=O)cc1,15,17
O=c1[nH]cnc2ncccc12,-3,3
COCCN(Cc1nccn1Cc1cccc(C)c1)C(=O)c1ccc(F)cc1,8,9
Cc1cccc(Cc2nc3c(c(N4CCOCC4)n2)CN(S(=O)(=O)c2cccc4ccccc24)CC3)c1,1,13
O=C(NS(=O)(=O)N1CCc2ccccc2C1)c1ccoc1,-8,-7
COc1ccc(CCOC(=O)[C@@H]2CCCN2C(=O)c2csc(C)n2)cc1OC,2,-5
Cn1cccc1-c1nnc(SCC(=O)c2ccc3c(c2)OCCCO3)o1,-5,-9
Cn1c(=O)c2c(nc(SCc3nc(N)nc(N4CCOCC4)n3)n2C)n(C)c1=O,0,-3
O=C(Nc1ccccc1Cl)N1CC(=O)N2CCc3ccccc3C2C1 (centres undefined),18,8
# Carrying on:
SMILES,NPYLR7 agonist,NPYLR7 agonist max-min
CCOc1ccc2ncc(C#N)c(Nc3ccc(F)c(Cl)c3)c2c1,-2,-6
CC(C)CN(CC1CN(CC(C)O)CCO1)C(=O)COc1ccccc1 (centres undefined),-4,-9
Cc1nn(C(C)C(=O)N2CC(C)CC(C)C2)c(=O)c2cc3occc3n12 (centres undefined),3,1
O=C(Nc1ccc(C(=O)n2ccccc2=NC2CCCCC2)s1)C1CC1,2,0
COC1CCN(c2ccc(C(=O)NCCCc3c(C)noc3C)cn2)CC1,3,0
CN(Cc1nc(-c2ccco2)no1)Cc1n[nH]c2c1CCC2,5,4
c1cnn(-c2ccc(CSc3nnnn3C3CCCC3)cc2)c1,7,3
CCc1n[nH]c(=S)c2cc3sccc3n12,1,-3
C=CCN(Cc1ccccc1C)Cc1cc(C)nn1C,6,3
Cc1cccc(NC2(C(F)(F)F)N=C(c3ccccc3)NC2=O)n1 (centres undefined),-7,-10
CCC1CN(C(=O)CCCn2cncn2)CCC(=O)N1Cc1ccccc1 (centres undefined),8,6
COCC(=O)Nc1cc(C(=O)N2CCCC(c3ccccc3C)C2)cc2nc(-c3cccnc3)n(C)c12 (centres undefined),6,-5
CN1[C@H]2CC[C@@H]1CN(Cc1cc3n(n1)CCCNC3)CC2,6,1
COc1ccccc1N1CCN(c2ccc(NC(=O)c3ccc(Cl)c([N+](=O)[O-])c3)cc2C(=O)NC2CC2)CC1,18,19
C=CCNc1ccccc1C(=O)N(Cc1ccc(C)s1)C1CC1,6,4
CNS(=O)(=O)c1ccc(C(=O)N2CCCCCC2)cc1,-6,-9
O=c1ccc(-c2ccncc2)nn1CCNS(=O)(=O)c1ccc(F)cc1,11,4
CCc1nc2ccc(C(=O)Nc3ccc(Cl)c(Cl)c3)cn2c1N(C)Cc1ccc(OC)cc1,-19,-22
N#CC1(c2ccc(NC(=O)c3cccnc3NCc3ccncc3)cc2)CCCC1,2,-4
COCCn1c(SCC(=O)N2CCCCC2)nc2c(c1=O)SCC2,3,1
COC(=O)c1c(NC(=O)Cn2nc(C)c([N+](=O)[O-])c2C)sc2c1CCCC2,-3,-7
COCCN(CC(=O)Nc1cc(-c2ccccc2)nn1-c1ccc(F)cc1)C(=O)Nc1cccc(Br)c1,17,18
Cc1c(Cn2ccnc2-c2ccc3c(c2)CC(C)(C)O3)cnn1C,18,5
NC(=O)c1cc2cc(Br)ccc2oc1=Nc1ccccc1,-9,-12
Cc1[nH][nH]c(=O)c1CC(=O)N1CCCC2(CCNC2)C1 (centres undefined),-3,-5
# Remaining list, next part.
SMILES,NPYLR7 agonist,NPYLR7 agonist max-min
CN(Cc1cc(Br)ccc1F)C(=O)/C=C/c1nccs1,19,14
COc1ccc2[nH]cc(C(CC(=O)NCC3(C)CCCO3)c3ccc(Cl)nc3)c2c1 (centres undefined),13,5
Cn1ccc2c(CO)cccc21,1,13
C/C(=N\NC(=O)c1cc(-c2ccc3ccccc3c2)n[nH]1)c1ccc(F)cc1,-2,3
COc1ccc(CCn2nc(C(=O)N(C)C)c3c2CCN(C(=O)c2cccnc2SC)C3)cc1,20,9
Cc1ccsc1[C@@H]1CCN(C(=O)CCc2nncn2C)C[C@H]1O,-1,-2
Cc1cccc(NC(=O)c2sc(-c3ccccc3)nc2C)c1,0,2
COCCCNC(=O)C(NC(=O)C1CC1)C1CCN(C(=O)c2ccc(Cl)cc2)CC1 (centres undefined),14,16
CNC(=O)[C@@H]1[C@@H](c2ccccc2)CN2CCN(c3ccccn3)C[C@H]12,-2,-2
CC(C)n1ccnc1-c1ccnc2c1ccn2C,6,6
CCCN(CCc1c[nH]c2ccc(NC(=O)COC)cc12)CC1CC1,9,0
CCOC(=O)C1(Cc2cccc(Cl)c2)CCCN(C(=O)c2ccc(C(C)=O)cc2)C1 (centres undefined),-1&0,1&14
CC1(C(=O)NC2CC2)CCN1C(=O)Cc1ccc(Cl)cc1Cl (centres undefined),0,-1
CCOC(=O)N1CCN(c2nc3ccsc3c(=O)s2)CC1,-4,-5
O=C(NC1CCCOc2ccccc21)N1CCC(O)(C(F)(F)F)C1 (centres undefined),1,20
CCC(=O)N1CCC(c2nc(-c3ccc(F)c(F)c3)no2)CC1,6,2
COc1ccccc1C1CC(c2ccccc2NS(C)(=O)=O)=NN1S(C)(=O)=O (centres undefined),10,13
COc1ccc(N2CC(NC(=O)N3CCC(C(N)=O)CC3)CC2=O)cc1OC (centres undefined),0,-2
O=C(c1ccccc1)N1C(F)(F)C1(C(F)(F)F)C(F)(F)F,-8,-10
COc1ccccc1N1CCN(C(=O)c2cc(-c3ccc(C)c(C)c3)nn2-c2cccc(Cl)c2)CC1,-2,-2
Cn1nc(C(=O)Nc2ccccc2-c2nc(-c3ccccc3)n[nH]2)ccc1=O,2,0
CC(NC(=O)Cn1ccc2ccccc2c1=O)c1ccc(F)cc1 (centres undefined),12,13
COCCN1CCN(Cc2nc(Cc3ccc(OC)c(OC)c3)no2)CC1,13,6
COCCN1C(=O)C2(NCCS2)c2ccccc21 (centres undefined),4,4
CC1(C(=O)NS(=O)(=O)Cc2cccc(Cl)c2)CCN1C(=O)CCC1CCCC1 (centres undefined),6,7
# (cont.)
SMILES,NPYLR7 agonist,NPYLR7 agonist max-min
O=C(COCc1ccccc1)NC1(c2noc(C3CCCC3)n2)CCCCCC1,2,-1
Cc1ccc(-c2[nH]ncc2CN2CCC(N3CCc4ccccc4C3)CC2)cc1C,-1,-6
Cc1ccc(CSc2nnc(-c3c[nH]c4ccccc34)o2)cc1,20,11
CSc1ccccc1NC(=O)c1ccccc1I,3,3
CCc1c(C(=O)N(CC)C2CCS(=O)(=O)C2)csc1C (centres undefined),-2,-2
Cn1ncc(CN2CCN(Cc3cccc(F)c3)CC2)c1C1CC1,0,0
Cc1oc(-c2cccs2)nc1CN1CCCC(CNC(=O)c2cccs2)C1 (centres undefined),9,9
Cc1cc(=O)n(CC(C)C)[nH]1,9,13
O=C(Nc1nccc2ccccc12)c1cccc(CN2CCOCC2CO)c1 (centres undefined),6,8
O=C(c1ccco1)N1N=C(c2ccco2)CC1c1ccc(Cl)cc1 (centres undefined),33,35
CCO[C@H]1COC[C@@H]1NC(=O)c1ccc(NCc2sccc2C)cc1,2,0
COCCCn1c(SCc2ccccc2OC)nnc1-c1cc(-c2ccccc2)nc2ccccc12,-8,-13
COc1ccccc1-c1cc(C(=O)NCCN(C)C)n2nc(-c3ccccc3)cc2n1,22&3,30&1
Cc1nnc(SCCCn2c(N3CCOCC3)nc3c2c(=O)[nH]c(=O)n3C)s1,-2,54
O=C(CCC1CCN(C(=O)c2ccc(-c3ccccc3)cc2)CC1)NC1CC1,-4,-5
COc1ccccc1NC(=O)CSc1ccc2nnc(-c3ccc(C)cc3)n2n1,12,15
CCCC(=O)OCC(O)CN(Cc1ccco1)Cc1c(-c2ccccc2)nn(C)c1Oc1ccccc1 (centres undefined),10,16
NC(=O)C1CCCN1C(=O)C(Cc1cnc[nH]1)NC(=O)C1CCC(=O)N1 (centres undefined),-4,-7
Cc1cn2c3c(=O)n(CC(=O)OCc4ccccc4)c(=O)n(C)c3nc2n1Cc1ccccc1,9,13
OC1(c2cccc(C(F)(F)F)c2)CCN(Cc2ccco2)CC1,16,15
COc1ncccc1CNC(=O)N(C)Cc1ccccc1C,2,0
CN(C(=O)CN1CCN(c2ccccc2O)CC1)c1ccccc1,9,3
O=C(CCc1nnc(CCCc2ccccc2)o1)NC(C1CC1)C1CC1,1,-2
Cc1nc2c(c(N(C)C)n1)CCN(C(=O)c1cc(-c3ccc(C)o3)[nH]n1)C2,4,-1
OCc1cc(-c2ccc(Cn3ccnc3)cn2)ccc1F,-3,-3
# The listing continues.
SMILES,NPYLR7 agonist,NPYLR7 agonist max-min
COc1ccc(C)cc1NC(=O)NCCNc1cc(N2CCCC2)nc(C)n1,-1,-4
Cc1ccc(Nc2nc(NCCc3ccccc3)nc3nccnc23)cc1Cl,2,3
CCN(Cc1nccn1C)C(=O)c1ccc(N2C[C@@H](C)O[C@@H](C)C2)nc1,-1,-4
O=C(Cc1cccs1)Nc1cccc(N2CCOC2=O)c1,1,-1
CCOc1cc2nc3c4ccccc4n(C(C)C)c3nc2cc1OCC,2,1
O=C(Cc1cn2ccsc2n1)NCC(c1ccco1)N1CCCC1 (centres undefined),1,0
COc1cc(OC)cc(C(=O)N2CC(=O)N3CCc4cc(OC)c(OC)cc4C3C2)c1 (centres undefined),-5,8
COc1ccccc1CCCNC1CCc2ccccc2C1 (centres undefined),3,2
COc1ccc(-c2nc(NC3CCCCC3)c3ccc(Cl)cc3n2)cc1,-5,5
COc1ccc(C=NN=C2CC3CCC2(C)C3(C)C)cc1O (centres undefined),4,9
N=C(N=C(N)N)N(c1ccccc1)c1ccccc1,-3,-9
O=c1[nH]c(-c2cccc(C(F)(F)F)c2)nc2ccc(Br)cc12,4,3
c1cnc(O[C@@H]2CO[C@H]3[C@@H]2OC[C@@H]3n2nnnc2Sc2ncccn2)nc1,-8,-18
C=C(Br)CNC(=O)C1CC1c1cccc(C)c1 (centres undefined),5,4
